Screening results from PubChem BioAssay.
LANA-H2B inh = blockers of LANA interaction with H2A/H2B – biochemical, FP readout, HTS, primary screen; Protein LANA1 (Human herpesvirus 8 type P (isolate GK18)), Q9QR71; inhibition, % (no concentration beside the values); 0.6% of 320,000 active; cell-free LANA-H2A/H2B peptide, fluorescence polarization; in the data active = inhibition mostly above about 10%, no sharp cut-off; inactive = mostly below about 6.7%;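 also: stock transfer was 7.5 nL into about 10 µL; 0% = median of vehicle wells and 100% = median of positive control wells; one replicate is shown; the record names a cut of 25% in any replicate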
T cruzi repl = inhibitors of intracellular T. cruzi growth, primary screen, luminescence, NIH3T3 host cells; 1.4% of 300,000 active; inhibition, % (test concentration not listed); AID 1885, 2009; T. cruzi beta-gal in NIH3T3, 90 h;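 active = mean inhibition across valid replicates above about 55%, limit read from the data; inconclusive = mean below that limit but half or more replicates reach it; inactive = mean below it, under half of replicates reach it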;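 also: signal also drops with host cell toxicity which is not excluded here; 0% = plate median of DMSO wells and 100% = zero luminescence signal; higher percent means less beta-gal luminescence so fewer parasites; stock transfer was 50 nL into about 50 µL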
Calb FLC = C. albicans growth inhibition with fluconazole, primary screen, CaCi-2 strain, Alamar Blue fluorescence. C. albicans CaCi-2 (fluconazole-resistant clinical isolate) + fluconazole, 48 h. growth inhibition, % (no concentration beside the values). 0.57% of 300,000 active. AID 1979, 2009;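 active = most replicates above 75%; inconclusive = exactly half above 75%; inactive = most below 75%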;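 also: all wells also contain fluconazole at 8 µg/ml as a sub-toxic cotreatment; 0% = median of DMSO wells and 100% = median of geldanamycin control wells; wells of about 8 µL received 7.5 nL stock; the first replicate is given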
RanGTP-Impb inh = inhibitors of RanGTP-importin-beta interaction, primary screen, biochemical, FRET, CFP-Ran, YFP-importin-beta, homogeneous; 1.1% of 300,000 active; cell-free CFP-Ran/YFP-importin-beta FRET ratio; inhibition, % (no concentration beside the values); AID 2216, 2009; Ran GTPase (GTP-bound) - importin-beta complex;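 active = most replicates above 15%; inconclusive = exactly half above 15%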;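 also: 0% = DMSO wells and 100% = Ran loaded with GDP instead of GTP; wells of about 40 µL received 100 nL stock; the first replicate is given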
Vif TR-FRET = inhibitors of Vif binding to APOBEC3G peptide, primary screen, biochemical, TR-FRET, GST-Vif 1-94, biotin-A3G peptide, dose response retest (AID 1117319). Virion infectivity factor (Human immunodeficiency virus type 1 group M subtype B (isolate …. TR-FRET GST-Vif / biotin-A3G peptide binding; higher % means a stronger effect; test concentration not given here; strong numbers were not always called active. one-dose inhibition, %; IC50 in µM for titrated hits. 0.57% of 260,000 active;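 active = above the screen mean plus three standard deviations and confirmed in dose response; inconclusive = results disagree or hit not tested in dose response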;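 also: Vif residues 1-94 fused to GST binding biotinylated APOBEC3G peptide 110-148; 0% = full assay without inhibitor and 100% = GST in place of GST-Vif; retest series ran down from 100 µM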
Bfl-1 A1 inh = caspase 3/7 activation in MEF A1-2A-BIM cells, primary screen, A1 inhibitor project, cell-based, luminescence, HTS; AID 2462, 2010; Caspase-Glo 3/7 luminescence, 3 h; percent of clofoctol response, vehicle zero; caspase activation, % (no concentration beside the values); 0.066% of 330,000 active;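 active = over half of replicate activation scores above 10%, or exactly half above 10 with the replicate mean above 10; inconclusive = replicate mean below 10 yet half the replicates above 10; inactive = over half of replicates below 10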;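 also: wells of about 30 µL received 50 nL stock; many hits fall short of the cut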
MLL AF4-AF9 inh = inhibitors of AF4 peptide binding to AF9, primary screen, biochemical, AlphaScreen, biotin-AF4 peptide, FLAG-AF9, single point. Protein AF-9 (Homo sapiens), P42568. inhibition, % at 10 µM. 0.47% of 350,000 active. AID 651704, 2012;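 active = every replicate reaching a set inhibition limit, whatever the replicate mean, cut at about 25% in these data; inconclusive = mean inhibition reaches that limit but some replicates miss it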;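 also: 0% = plate neutral control median and 100% = total signal loss; the record names both 10 and 1 µM as test concentration; the first replicate is given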
Target sequence (P42568 whole entry, looked up): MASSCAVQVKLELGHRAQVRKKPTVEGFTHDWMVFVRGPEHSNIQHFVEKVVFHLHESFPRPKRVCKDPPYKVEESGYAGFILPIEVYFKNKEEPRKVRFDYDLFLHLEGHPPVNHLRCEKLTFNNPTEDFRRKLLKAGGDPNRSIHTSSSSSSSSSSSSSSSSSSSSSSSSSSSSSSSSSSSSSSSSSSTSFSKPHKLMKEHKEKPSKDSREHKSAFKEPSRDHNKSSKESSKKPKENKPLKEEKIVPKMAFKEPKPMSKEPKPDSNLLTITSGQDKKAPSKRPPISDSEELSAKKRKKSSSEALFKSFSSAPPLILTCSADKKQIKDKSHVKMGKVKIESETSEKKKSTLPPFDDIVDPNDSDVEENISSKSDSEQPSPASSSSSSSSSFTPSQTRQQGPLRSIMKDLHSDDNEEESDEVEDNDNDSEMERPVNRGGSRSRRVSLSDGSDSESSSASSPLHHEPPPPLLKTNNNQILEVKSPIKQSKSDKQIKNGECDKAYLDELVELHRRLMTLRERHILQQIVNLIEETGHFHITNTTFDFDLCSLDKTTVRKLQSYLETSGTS
Beta apoptosis = inhibitors of cytokine-induced beta cell apoptosis, primary screen, luminescence. INS-1E cytokine-induced death, ATP luminescence, 48 h; percent of positive-control rescue, neutral wells zero. protection from apoptosis, % (test concentration not listed). 0.8% of 300,000 active;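 active = all replicates at 75% or more, or half of them and the mean; inconclusive = half reach 75% but not the mean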;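 also: 0% = cytokine-treated negative control wells and 100% = positive control rescue; higher means more ATP so stronger rescue from cytokine killing; wells of about 40 µL received 100 nL stock; the first replicate is given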
An asterisk follows results filed as active; ? = inconclusive; nt = not tested or not shown; & = joins results of further samples.

mol,LANA-H2B inh,T cruzi repl,Calb FLC,RanGTP-Impb inh,Vif TR-FRET,Bfl-1 A1 inh,MLL AF4-AF9 inh,Beta apoptosis
C=CC[n+]1c(-c2ccc(OC)cc2)csc1NNC(=O)Nc1ccccc1,-0.2,49,-14,-1.7,-2%,-1.1,-1.8,nt
CCOC(=O)c1ccc(NC(=O)Cc2cccs2)cc1,-2.3,-1,48,1.0,nt,-2.1,-1.9,0
N#Cc1ccc(CSc2nnc(-c3cccc(S(=O)(=O)N4CCCCC4)c3)o2)cc1,1.7,34,-3,-2.0,-3%,0.1,nt,14
O=C(CSc1ncnc2c1oc1ccccc12)Nc1cccc(Cl)c1,2.3,20,-17,0.7,-451%,0.7,nt,nt
CCCCNC(=O)C(C#N)c1nc2ccccc2nc1N1CCN(c2ccccc2F)CC1 (stereo not drawn),0.7,-5,0,6.2,0%,-0.4,nt,7
CCN(CC)c1ccc(NC(=O)CCCCC(=O)Nc2ccc(N(CC)CC)cc2)cc1,2.3,36,-9,-4.9,nt,0.1,3.6,12
CCC(C(=O)Nc1ccc(C(=O)Nc2ccccc2C(=O)O)cc1)c1ccccc1 (stereo not drawn),-0.8,-30,-6,0.6,nt,0.4,-5.4,-3
O=C(Nc1ccc2c(c1)CCC2)c1cnn2c1NC(c1ccco1)CC2C(F)(F)F (stereo not drawn),-0.2,nt,nt,nt,?,0.0,nt,10

(listing goes on)
mol,LANA-H2B inh,T cruzi repl,Calb FLC,RanGTP-Impb inh,Vif TR-FRET,Bfl-1 A1 inh,MLL AF4-AF9 inh,Beta apoptosis
CC(C)(C)c1ccc(C(=O)N/C(=C\c2ccco2)C(=O)O)cc1,4.1,-16,-22,-1.4,?,-0.1,-2.6,-7
O=C(C1CCCCC1)N1CCN(c2nc(-c3ccc(F)cc3)cs2)CC1,8.7,32,23,-1.2,-17%,-0.3,-0.1,nt
CN(C)S(=O)(=O)c1ccc(N2CCCC2)c(C(=O)NCc2cccc(C(F)(F)F)c2)c1,0.9,8,0,1.9,-13%,0.0,nt,2
CC1CCc2c(nc3ncnn3c2NCCc2ccccc2F)C1 (stereo not drawn),-0.5,34,0,-4.6,nt,0.6,-1.2,16
CC(=O)Nc1ccc(-c2nc3ccc(NC(C)=O)cc3o2)cc1,-4.3,-4,nt,?,-12%,-1.0,-1.8,-2
COc1cc(C(=O)NCC(=O)N/N=C\C(C)=C/c2ccccc2)cc(OC)c1OC,-0.7,-1,26,1.9,nt,-0.3,-0.6,1
Cn1nccc1C(=O)NC(=S)Nc1cc(Cl)cc(Cl)c1,-3.6,-4,-9,2.3,nt,-0.6,-14,-7
Cc1ccc(N2CCN(C(=O)NC3CCCCC3)CC2C)cc1 (stereo not drawn),-2.5,-7,0,6.7,6%,0.3,2.6,6

Other structures follow.
mol,LANA-H2B inh,T cruzi repl,Calb FLC,RanGTP-Impb inh,Vif TR-FRET,Bfl-1 A1 inh,MLL AF4-AF9 inh,Beta apoptosis
CCCc1cc(=O)[nH]c(SCC(=O)Nc2cccc(S(=O)(=O)N3CCCCC3)c2)n1,-2.9,nt,nt,nt,-7%,0.4,0.7,2
Cc1cc(O)c(-c2cc(C(=O)NCCc3ccc(S(N)(=O)=O)cc3)[nH]n2)cc1C,2.6,-1,1,2.9,nt,-0.6,-14,3
Cc1cc(C)nc(Sc2ccc3nnc(C(F)(F)C(F)(F)C(F)(F)F)n3n2)n1,-3.3,25,12,0.9,3%&-6%,-0.3,nt,2
CCN(CC)c1nc(N)nc(N(c2ccccc2)c2ccccc2)n1,-6.3,17,2,2.9,8%,-0.6,1.9,-7
Cn1cc(-c2ccccc2C(=O)O)c(=O)c2ccccc21,3.8,-9,5,-0.8,nt,0.6,-0.8,nt
CCc1cc(=O)oc2cc(C)cc(OCC(=O)NCCN3CCOCC3)c12,-4.7,6,-2,3.8,-3%,-1.3,1.4,-6
Cc1c(OCc2ccc(C(=O)O)o2)ccc2c3c(c(=O)oc12)CCC3,0.2,-13,26,-2.7,29%,-3.1,nt,-4
CC1(C)CC(=O)c2c(O)cc(OCc3ccc([N+](=O)[O-])cc3)cc2O1,5.9,14,-3,5.1,-2%,0.7,nt,-4

Additional records follow:
mol,LANA-H2B inh,T cruzi repl,Calb FLC,RanGTP-Impb inh,Vif TR-FRET,Bfl-1 A1 inh,MLL AF4-AF9 inh,Beta apoptosis
CCN(CC)S(=O)(=O)c1ccc(NC(=O)CC(NC(C)=O)c2ccccc2)cc1 (stereo not drawn),0.1,3,-3,-1.5,8%,-0.3,nt,-1
O=C(NCc1cccnc1)c1cc(Sc2cccc(Cl)c2)nc2ccccc12,4.3,15,-2,5.9,nt,0.2,-2.9,2
O=C(c1ccccc1NS(=O)(=O)c1cccs1)N1CCOCC1,18,-26,-4,2.3,14%,0.1,nt,2
O=C(OCc1cccc([N+](=O)[O-])c1)c1ccc2ccccc2n1,2.2,3,-15,5.3,9%,-1.7,2.5,-4
COc1cc(C(N)=O)cc(Br)c1OCc1ccccc1,2.2,-10,-5,-1.4,11%,0.1,4.4,0
O=C1CN(C(=O)c2ccc(F)c(S(=O)(=O)N3CCOCC3)c2)c2ccccc2N1,-0.1,-10,-4,-0.7,6%,0.4,-2.6,-2
CC(=O)c1cccc(-n2nnnc2SCC(=O)N2CCCC2)c1,1.4,-15,6,5.6,-2%,1.5,nt,-1
Cn1c(C(=O)N[C@@H](Cc2ccccc2)C(=O)O)cc2cc(F)ccc21,-0.5,-10,-7,4.3,2%,-0.5,-2.7,1

More results follow.
mol,LANA-H2B inh,T cruzi repl,Calb FLC,RanGTP-Impb inh,Vif TR-FRET,Bfl-1 A1 inh,MLL AF4-AF9 inh,Beta apoptosis
COc1ccc(/C=C/C(=O)N2CCN(S(=O)(=O)c3ccccc3)CC2)cc1OC,3.0,-6,0,6.0,nt,-0.1,2.2,4
c1ccc(Cn2ncc3c(Nc4ccccc4)ncnc32)cc1,6.6,-16,8,3.2,?,0.4,1.3,1
CCNc1nc(NCC)n2c(SCC(=O)Nc3ccc(C)cc3Br)nnc2n1,-0.7,nt,nt,nt,-3%,-0.6,-0.5,1
COc1ccc(OCC(=O)Nn2c(-c3ccc(C)cc3)nc3ccccc3c2=O)cc1,2.1,3,-1,1.5,-9%,0.2,nt,-3
Fc1ccccc1-c1nc(-c2ccc(Cl)cc2)no1,1.8,-10,-10,3.2,-3%,-4.4,nt,-5
Nc1nonc1-n1nnc(C(=O)N/N=C/c2ccc(OCc3cccc(Cl)c3)cc2)c1CN1CCCCC1,-0.7,11,0,2.2,2%,-2.8,-4.3,-2
Cc1ccc(S(=O)(=O)N(C)CC(=O)NC2CC(C)(C)NC(C)(C)C2)cc1,-4.2,2,3,-3.3,15%,-0.2,nt,0
O=C(O)c1ccc(-n2nc(C(F)(F)F)c3c2CCCC3)cc1,6.0&3.1,-10&-8,11&22,2.6&-1.7,1%,0.9&0.0,-1.1,-1&-7

Four compounds from above, sorted by heavy-atom count, falling.
mol,LANA-H2B inh,T cruzi repl,Calb FLC,RanGTP-Impb inh,Vif TR-FRET,Bfl-1 A1 inh,MLL AF4-AF9 inh,Beta apoptosis
Cc1cc(C)nc(Sc2ccc3nnc(C(F)(F)C(F)(F)C(F)(F)F)n3n2)n1,-3.3,25,12,0.9,3%&-6%,-0.3,nt,2
CC1(C)CC(=O)c2c(O)cc(OCc3ccc([N+](=O)[O-])cc3)cc2O1,5.9,14,-3,5.1,-2%,0.7,nt,-4
O=C(OCc1cccc([N+](=O)[O-])c1)c1ccc2ccccc2n1,2.2,3,-15,5.3,9%,-1.7,2.5,-4
Cn1nccc1C(=O)NC(=S)Nc1cc(Cl)cc(Cl)c1,-3.6,-4,-9,2.3,nt,-0.6,-14,-7

(cont.)
mol,LANA-H2B inh,T cruzi repl,Calb FLC,RanGTP-Impb inh,Vif TR-FRET,Bfl-1 A1 inh,MLL AF4-AF9 inh,Beta apoptosis
CCOC(=O)CNC(=O)N1CCCC(C(=O)c2ccc3c(c2)OCO3)C1 (stereo not drawn),3.7,-23,-7,?,3%,1.9,-1.3,-7
CC(O)CNc1ncnc2cc(-c3ccc(F)cc3)sc12 (stereo not drawn),4.8,-14,3,3.4,nt,-3.9,-0.7,-2
C=COCCNC(=S)N1CCOCCOCCN(C(=S)NCCOC=C)CCOCC1,10,8,3,2.0,?,-0.3,-2.6,-4
CCNc1ccc(S(=O)(=O)N(C)C)cc1NCC(=O)Nc1ccc(Br)cc1F,nt,-24,-2,-2.9,-1%,0.3,6.1,47
O=C1CN(S(=O)(=O)c2ccc(Cl)cc2)c2ccccc2N1,4.3,4,2,-1.1,5%,0.4,-2.4,-9
CCC(CC)NC(=O)COC(=O)c1ccc(NS(=O)(=O)c2ccc3c(c2)OCCO3)cc1,1.9,24,6,0.9,5%,0.5,nt,-12
Cc1ccc2nc(SCC(=O)NCc3ccc(F)cc3)[nH]c2c1,8.6,-5,3,4.6,5%,0.6,-1.3,-6
C/C(Cc1ccccc1)=N\NC(=O)CNC(=O)c1cccc(Cl)c1,-3.8,4,-14,-1.5,nt,-0.2,-0.3,0

The list goes on:
mol,LANA-H2B inh,T cruzi repl,Calb FLC,RanGTP-Impb inh,Vif TR-FRET,Bfl-1 A1 inh,MLL AF4-AF9 inh,Beta apoptosis
O=c1c2ccccc2oc2nc(-c3ccco3)n(-c3ccccc3)c(=O)c12,1.4,-11,-5,0.1,nt,-1.4,-1.4,-10
O=C(NCC1CCN(C(=O)c2cccc([N+](=O)[O-])c2)CC1)c1cccc([N+](=O)[O-])c1,0.0,-8,1,-1.3,nt,0.6,-5.1,-3
CCN1C(=O)c2ccccc2S(=O)(=O)c2ccc(C(=O)NCCOC)cc21,1.7,-18,-1,-1.0,14%,0.5,-1.0,-7
CCCC(C)C(=O)Nc1ccc2c(c1)OCCO2 (stereo not drawn),-1.4,-4,-6,-0.7,3%,1.7,nt,-3
CS(=O)(=O)N(CC(=O)Nc1ccc2c(c1)OCO2)c1ccc2c(c1)OCO2,-4.4,4,-6,?,6%,-0.5,nt,-1
COc1ccc(/C=N/NC(=S)NCc2ccccc2)cc1OC,-2.2,-16,5,1.2,nt,-0.4,nt,-9
O=C(O)CCc1nn2c3ccccc3nc2n(Cc2ccccc2)c1=O,-1.4,-6,21,3.7,-13%,0.2,-1.2,0
